PrP 5UTR inh – inhibition of PrP 5' UTR reporter expression; inhibition, % (test concentration not listed); AID 488862, 2010; cell-based PrP 5' UTR mRNA reporter, plate reader; 340,000 tested, 0.35% active;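 active = every replicate at 50% or more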;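 also: 0 = median of the neutral control wells; tested in H4 reporter cells; numbers are from one replicate; inactives centre near -14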
Mtb hypoxia rep – PubChem AID 1159583. 300,000 tested, 0.1% active. fluorescence inhibition, % (concentration not given with the values). M. tuberculosis hypoxia-regulated fluorescent reporter, fluorescence;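 active = 35 to 45% if threefold the growth effect, above 45% if 1.5-fold the growth effect; inactive = the rest, general growth blockers included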;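 also: wells of about 50 µL received 100 nL stock; 0% = vehicle wells and 100% = reference inhibitor wells; whole bacteria with a GFP reporter of the hypoxia response; strong numbers were not always called active; many hits fall short of the cut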
RN4220 kill – growth inhibition of S. aureus RN4220, primary screen, OD600 | 16 h | inhibition, % (no concentration beside the values) | 330,000 tested, 0.33% active | AID 1259311, 2017;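 active = z-score of -3 or lower and OD600 up to 0.18 on both plates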;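 also: plate controls were untreated cells for no effect and reference antibiotic for full effect; stock transfer was 100 nL into about 80 µL; one replicate is shown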
Bead autofluor – counter-screen for toxin protease inhibitors: compound fluorescence | AID 624483 | 360,000 tested, 3.1% active | compound autofluorescence counterscreen, microsphere flow cytometry; stronger effect = higher value | fluorescence intensity (test concentration not listed);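 active = at least 3 SD above the mean of all compounds, about 16000 in these data; inconclusive = too few beads counted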;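 also: 100 nL of 1 mM stock went into each well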
BJeLR lethal – MLPCN primary cell-based screen for lethality selective to Ras in HRASV12 cells; BJeLR (HRASV12) viability, CellTiter-Glo ATP luminescence, 48 h; reference of the scale not given here; 300,000 tested, 0.17% active; inhibition, % (concentration not given with the values);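 active = replicate mean above 50%; inconclusive = above 50% but judged a plate artefact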;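 also: 50 nL library stock added to about 25 µL; numbers are from one replicate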
Sa ugtP lethal – growth inhibition of ugtP-null S. aureus, primary screen, RN4220 ugtP deletion, OD600; growth inhibition, % (concentration not given with the values); 16 h; some inactives read as strong as hits; 330,000 tested, 0.54% active; AID 1259309, 2017;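 active = z-score under -3 and OD600 up to 0.15 on both plates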;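 also: plate controls were untreated wells for no effect and antibiotic for full effect; wells of about 80 µL received 100 nL stock; the first replicate is given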
Mtb hypoxia rep growth – second read-out of Mtb hypoxia rep, no call of its own (marks repeat the call); growth inhibition, %; measured here: M. tuberculosis growth (absorbance);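 0% = vehicle and 100% = reference antibiotic; read after six days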
Active calls of the source: *; ? = inconclusive; . = no result given.

Each structure is followed by: PrP 5UTR inh, RN4220 kill, Bead autofluor, Mtb hypoxia rep growth, Mtb hypoxia rep, Sa ugtP lethal, BJeLR lethal
> CC(C)OC(=O)CC1C(=O)NCCN1C(=S)NC(=O)c1cccs1 (configuration not stated)
 : -1.4, 7.0, 2624, 0.4, 2.8, 2.1, 3.6
> Cc1ccc(C)c(C(=O)CSc2nnnn2C(C)C)c1
 : -21.3, 4.3, 9835, 1.5, 13.1, 3.4, 2.2
> Cc1ccc(S(=O)(=O)NCC(C)NS(=O)(=O)c2ccc(C)cc2)cc1 (configuration not stated)
 : -6.9, 1.7, 3732, 7.8, 4.2, -6.6, -1.3
> Cc1ccc(N2C(=O)CC(n3nc(C)cc3C)C2=O)cc1 (configuration not stated)
 : -2.8, -1.2, 16252*, 1.4, -3.4, -1.4, 3.3
> Cc1csc(NN=Cc2ccccc2F)n1
 : ., 3.6, ., 32.3, 17.2, -2.0, .
> CC(C)(C)n1nnnc1C(c1ccccn1)N(Cc1ccccc1)Cc1ccc(Cl)cc1 (configuration not stated)
 : -24.3, -2.0, 2974, ., ., 20.5, 0.6
> COc1cccc(CN(C)CC(=O)Nc2ccccc2C(=O)Nc2ccccc2)c1
 : 21.8, 2.1, 4729, -2.0, 3.5, 9.6, -6.5
> O=C(COc1ccc(/C=N/NC(=O)c2cc3ccccc3o2)cc1Br)Nc1ccccc1
 : -29.7, ., 10850, ., ., ., 11.4
> CCc1ccc(OCC(=O)N2c3ccccc3CCc3ccccc32)cc1
 : -9.4, -0.7, 2525, 4.9, 11.9, 2.1, -14.1
> CCOC(=O)Cc1c(C)nc2c(-c3ccc(OC)cc3)c(C)nn2c1C
 : -9.9, -3.7, 5001, ., ., 7.4, -0.5
> CCOc1ccc(NC(=S)Nc2cc(OC)c(Cl)cc2OC)cc1
 : 3.1, -2.5, 9747, 6.1, 4.5, -4.2, -2.5
> Cc1nn(C)c(C(=O)Nc2ccn(Cc3c(F)c(F)cc(F)c3F)n2)c1[N+](=O)[O-]
 : ., 3.3, 7947, 2.9, -3.1, 1.5, -6.8
> Cc1cc(C)c2c(=O)[nH][nH]c2n1
 : -10.4, 1.6, 3667, 1.5, -1.0, 4.1, .
> CCOc1ccccc1NC(=S)N1CCC(NC(=O)c2ccco2)CC1
 : -19.6, 8.9, 4222, -6.3, -3.8, 3.3, .
> COc1cc(NS(=O)(=O)c2ccc(C)cc2C)cc(OC)c1OC
 : -17.0, 3.9, 3725, 9.9, 5.7, -7.8, -5.6
> COc1ccccc1CCC(=O)Nc1ccc(OC)c(S(=O)(=O)N2CCOCC2)c1
 : -23.8, 2.9, 5321, 3.4, 10.8, 10.8, .
> CC(=NNC(=O)c1nnn(-c2nonc2N)c1-c1ccccc1)c1ccc2c(c1)OCO2
 : ., 6.3, ., 0.2, -16.9, 6.6, .
> O=C(CSc1nncn1-c1ccccn1)Nc1cccc(Cl)c1
 : -9.9, 6.1, 2416, -4.2, 8.1, 10.4, -1.1
> CC(=O)Nc1ccc(N(C(=O)Cc2cccs2)C(C(=O)NC2CCCC2)c2ccncc2)cc1 (configuration not stated)
 : -17.9, ., 2845, ., ., ., -0.4
> CC(NCC1COc2ccccc2O1)C(=O)NCc1ccccc1 (configuration not stated)
 : 2.2, 5.6, 2530, 6.9, 11.3, 4.5, -3.0

Among those listed so far, 2 contain two or more sulfur atoms:
Each structure is followed by: PrP 5UTR inh, RN4220 kill, Bead autofluor, Mtb hypoxia rep growth, Mtb hypoxia rep, Sa ugtP lethal, BJeLR lethal
> CC(C)OC(=O)CC1C(=O)NCCN1C(=S)NC(=O)c1cccs1 (configuration not stated)
 : -1.4, 7.0, 2624, 0.4, 2.8, 2.1, 3.6
> Cc1ccc(S(=O)(=O)NCC(C)NS(=O)(=O)c2ccc(C)cc2)cc1 (configuration not stated)
 : -6.9, 1.7, 3732, 7.8, 4.2, -6.6, -1.3

More entries:
Each structure is followed by: PrP 5UTR inh, RN4220 kill, Bead autofluor, Mtb hypoxia rep growth, Mtb hypoxia rep, Sa ugtP lethal, BJeLR lethal
> O=C(CNC(=O)c1cccc(F)c1)NN=Cc1cccnc1
 : ., 4.5, ., -4.1, -4.1, -0.2, .
> Cc1cccc2nc(-c3ccco3)c(Nc3ccc4c(c3)OCCO4)n12
 : -17.2, -5.3, 4682, -6.4, 8.3, 12.1, 8.6
> COC(=O)c1ccc(CNC(=O)C2CCC(=O)N(Cc3ccccn3)C2)cc1 (configuration not stated)
 : -14.5, 3.1, 4794, -12.5, 2.1, 10.3, 0.1
> CCCCN(CC)C(=O)CSc1cc(=O)n(C)c2ccccc12
 : -20.4, 6.8, 10093, 8.6, 11.7, -1.0, 1.8
> COc1ccc(OCC(O)CN2CCCC2)cc1 (configuration not stated)
 : -11.0, 4.0, 3818, 3.0, 10.3, 11.0, 0.4
> CCOc1cc(/C=C(\CC(=O)O)c2nc3ccccc3s2)ccc1OC
 : -40.6, -6.4, 3912, 6.6, 13.4, 4.5, -0.8
> O=C(c1cc2nc(-c3ccccc3)cc(-c3ccccc3)n2n1)N1CCC2(CC1)OCCO2
 : -7.3, -3.9, 2802, ., ., -14.0, -13.2
> CC1(C)CC2(CC(C)(C(=O)CSc3nc4ccccc4s3)OC2=O)C(=O)O1 (configuration not stated)
 : -5.3, -0.3, 16350*, 0.1, -1.6, 1.9, 6.4
> COc1ccc(N(C)C(=O)CCS(=O)(=O)c2cccc3nonc23)c(OC)c1
 : -5.2, 3.4, 3968, 15.7, 9.5, -1.4, 3.4
> Cc1ccc(/C=C/C(=O)Nc2cccc3ncccc23)o1
 : -21.9, 2.2, 10867, 2.0, 13.6, -2.2, 7.4
> COC(=O)c1ccc(OCC2c3cc(OC)c(OC)cc3CCN2C(=O)C2CC2)cc1 (configuration not stated)
 : ., 3.0, 10948, 1.7, -0.9, 20.8, .
> N#CC1=C2C=CC=CN2CC1=O
 : -28.0, 3.6, 2631, 4.2, 2.1, -4.9, 0.9
> O=C(Nc1ccccc1Oc1ccccc1)c1ccccc1F
 : -19.5, 6.4, 2203, 6.5, 12.9, 18.8, -2.0
> Cc1cccc2c1N(CC(=O)OC(C)C)C(=O)C2=O
 : 5.3, 1.5, 5287, 8.5, 4.5, 13.3, -8.8
> COCCn1c(SCc2ccc(C(=O)OC)o2)nc2ccccc2c1=O
 : -17.3, 5.5, 9250, 7.0, 1.9, 13.8, .
> CC(Cn1cnc2ccccc21)C(=O)O (configuration not stated)
 : -22.2, 3.6, 13299, 2.7, 16.3, 3.5, -1.7
> O=C(C1=C(O)C(=O)N(CCN2CCOCC2)C1c1ccco1)c1cc2ccccc2o1 (configuration not stated)
 : -30.8, ., ?, ., ., ., -8.6
> Cc1ccccc1-n1nc2c(c1NC(=O)c1cc3ccccc3oc1=O)CS(=O)(=O)C2
 : ., 10.5, ., 10.6, 11.0, -13.9, 1.2
> CC1CC2OC2CC1COC(=O)C1CC2OC2CC1C (configuration not stated)
 : -19.6, 2.4, 2940, 1.1, 5.4, 3.9, .
> O=C(CCN1C(=O)/C(=C/c2cccs2)SC1=S)Nc1cccc(O)c1
 : -16.5, -9.8, 3806, -14.8, 3.0, -3.3, 6.6
> CCOc1ccc(CN(C)C(=O)CNC(=O)Cc2cccc3ccccc23)cc1
 : -16.3, -9.0, 5898, 12.6, 4.8, 17.0, -12.2
> CCOc1ccccc1N1CCN(S(=O)(=O)c2ccc(F)c(F)c2)CC1
 : 3.9, 0.8, 3712, ., ., -0.7, -3.6
> CCn1c(O)c(N=NC(=O)CNc2ccc(C)cc2)c2ccccc21
 : -16.7, 5.8, 2531, 1.5, 7.0, -8.3, 4.2
> O=C(COc1ccccc1Br)NC1CCCC1
 : -63.3, 9.9, 9490, 8.3, 1.0, 16.5, 13.0
> COc1cccc2cc(C(=O)NC(C)c3ccccc3)c(=O)oc12 (configuration not stated)
 : -7.6, -2.8, 3806, 5.6, -9.3, 4.1, 6.4
> O=[N+]([O-])c1cccc(-n2nnnc2CN2CCCC2)c1
 : -6.2, 17.0, 4400, -2.2, -10.0, 10.9, .
> Cc1cccc(OCC(=O)Nc2cc(Cl)ccc2-n2cncn2)c1C
 : -17.6, 3.8, 5914, 3.9, 7.9, -2.9, 5.5
> O=C(CSC1=NCCS1)N1CCc2ccccc21
 : -80.3, 7.1, 4783, 13.1, 8.7, -0.3, -3.8
> O=C(O)c1cccc(NC2=C(Cl)C(=O)c3ccccc3C2=O)c1
 : -33.2, 15.1, 2101, 3.2, 20.9, 11.9, -2.8
> COC(=O)CSC1=NN1c1cc(C)nc(N)n1
 : 2.0, 2.7, 4272, ., ., 6.2, -4.8
> Cc1cc2c3c([nH]c2cc1S(=O)(=O)NCCCOC(C)C)CC(C)(C)CC3=O
 : ., 3.1, 3352, 4.2, -13.4, 3.0, 1.9
> CCS(=O)(=O)N1CCCC(C(=O)NCCN2CCC(Cc3ccccc3)CC2)C1 (configuration not stated)
 : -25.5, -15.3, 4082, 8.0, 3.6, -2.4, -1.8
> CC1Sc2ccc(S(=O)(=O)CCC(=O)NCc3ccc(Cl)cc3)cc2NC1=O (configuration not stated)
 : -23.4, 4.6, 5680, -6.9, -11.7, 4.0, -5.2
> Nc1nnc(SCC(=O)NCc2ccc3c(c2)OCO3)s1
 : -11.1, 0.5, 2137, ., ., 7.7, -4.0
> CCOC(=O)CSc1nnc(-c2ccco2)n1-c1ccc(C)cc1
 : -18.3, 5.2, 3660, 1.9, 2.9, 5.4, -3.4
> CCCCN(C(=O)c1cc(S(=O)(=O)N2CCCCC2)ccc1Cl)c1c(N)n(CC(C)C)c(=O)[nH]c1=O
 : -12.7, 3.9, 3948, -1.3, 6.4, 0.2, .
> Cc1ccc(S(=O)(=O)N2CC=C(c3ccc(F)cc3)CC2)cc1
 : -27.0, 6.8, 2616, 0.1, 12.7, 15.8, 7.4
> Cc1ccc(/C=C/C(=O)NCc2ccccn2)o1
 : -17.0, 7.5, 2360, -1.3, 11.6, 13.9, -2.0
> CSc1nnc(-c2ccccc2Cl)n1N
 : -17.7, 5.2, 2775, ., ., 0.8, 3.6
> O=C(Cc1ccc(Br)cc1)NCCc1ccccc1
 : -22.0, -3.1, 3719, 1.2, 14.2, 9.5, -1.7
> CCOC(=O)c1sc(NC(=O)CSc2n[nH]c(-c3ccc(Cl)cc3Cl)n2)c(C#N)c1C
 : 2.4, 17.3, 23279*, -1.3, 1.7, 11.6, 5.4
> COc1cc2[nH]c(=S)nc(NCC3CCCO3)c2cc1OC (configuration not stated)
 : -16.8, -3.5, 3567, ., ., 7.6, 2.5
> O=C(CC1Nc2ccccc2NC1=O)NCc1cccnc1 (configuration not stated)
 : -7.0, 7.7, 2897, 5.3, 9.3, 3.7, -1.1
> Cn1c(CNC(=O)c2ccco2)nnc1SCCOc1ccccc1
 : -16.2, -0.3, 5663, -5.6, 5.9, 11.0, -19.2
> Cc1ccc(SCC(=O)NN2C(=O)c3ccccc3C2=O)cc1
 : 2.2, -0.7, 4294, -7.4, -3.4, 4.2, -3.5
> COC(=O)C1=C(CCc2ccccc2)NC(=O)NC1c1ccc(C#N)cc1 (configuration not stated)
 : -21.7, 5.9, 3676, 10.9, 8.8, 3.0, 0.0
> Cc1nn(C)cc1CN(C)Cc1ccc(OCC(O)CN2CCCCC2)cc1 (configuration not stated)
 : -25.1, 1.2, 4754, -9.6, -8.9, 1.8, 15.0
> CN(/C=C/C(=O)C(F)(F)C(F)(F)F)Cc1ccccc1
 : -14.4, 5.2, 13628, 7.4, 9.3, -0.3, -0.6
> Cc1noc(C)c1C(=O)Nc1ccccc1N1CCOCC1
 : -17.4, 2.6, 3861, -2.7, 7.6, 0.9, .

Compound activity (PubChem)
